Calb FLC = C. albicans growth inhibition with fluconazole, primary screen, CaCi-2 strain, Alamar Blue fluorescence; C. albicans CaCi-2 (fluconazole-resistant clinical isolate) + fluconazole, 48 h; growth inhibition, % (concentration not given with the values); 300,000 compounds, 0.57% hits; AID 1979, 2009;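 active = most replicates above 75%; inconclusive = exactly half above 75%; inactive = most below 75%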;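 note: all wells also contain fluconazole at 8 µg/ml as a sub-toxic cotreatment; 0% = median of DMSO wells and 100% = median of geldanamycin control wells; wells of about 8 µL received 7.5 nL stock; the first replicate is given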
T cruzi inh = inhibitors of intracellular T. cruzi growth, primary screen, luminescence, NIH3T3 host cells | T. cruzi beta-gal in NIH3T3, 90 h | inhibition, % (test concentration not listed) | 300,000 compounds, 1.4% hits | AID 1885, 2009;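 active = mean inhibition across valid replicates above about 55%, limit read from the data; inconclusive = mean below that limit but half or more replicates reach it; inactive = mean below it, under half of replicates reach it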;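 note: signal also drops with host cell toxicity which is not excluded here; 0% = plate median of DMSO wells and 100% = zero luminescence signal; higher percent means less beta-gal luminescence so fewer parasites; stock transfer was 50 nL into about 50 µL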
Beta apoptosis = inhibitors of cytokine-induced beta cell apoptosis, primary screen, luminescence; 300,000 compounds, 0.8% hits; protection from apoptosis, % (test concentration not listed); INS-1E cytokine-induced death, ATP luminescence, 48 h; percent of positive-control rescue, neutral wells zero;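 active = all replicates at 75% or more, or half of them and the mean; inconclusive = half reach 75% but not the mean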;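 note: 0% = cytokine-treated negative control wells and 100% = positive control rescue; higher means more ATP so stronger rescue from cytokine killing; wells of about 40 µL received 100 nL stock; the first replicate is given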
RanGTP-Impb inh = inhibitors of RanGTP-importin-beta interaction, primary screen, biochemical, FRET, CFP-Ran, YFP-importin-beta, homogeneous. Ran GTPase (GTP-bound) - importin-beta complex. cell-free CFP-Ran/YFP-importin-beta FRET ratio. inhibition, % (test concentration not listed). 300,000 compounds, 1.1% hits;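 active = most replicates above 15%; inconclusive = exactly half above 15%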;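 note: 0% = DMSO wells and 100% = Ran loaded with GDP instead of GTP; wells of about 40 µL received 100 nL stock; the first replicate is given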
MLL AF4-AF9 inh = inhibitors of AF4 peptide binding to AF9, primary screen, biochemical, AlphaScreen, biotin-AF4 peptide, FLAG-AF9, single point | 350,000 compounds, 0.47% hits | Protein AF-9 (Homo sapiens), P42568 | inhibition, % at 10 µM;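 active = every replicate reaching a set inhibition limit, whatever the replicate mean, cut at about 25% in these data; inconclusive = mean inhibition reaches that limit but some replicates miss it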;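 note: 0% = plate neutral control median and 100% = total signal loss; the record names both 10 and 1 µM as test concentration; the first replicate is given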
Target sequence (P42568 whole entry, looked up): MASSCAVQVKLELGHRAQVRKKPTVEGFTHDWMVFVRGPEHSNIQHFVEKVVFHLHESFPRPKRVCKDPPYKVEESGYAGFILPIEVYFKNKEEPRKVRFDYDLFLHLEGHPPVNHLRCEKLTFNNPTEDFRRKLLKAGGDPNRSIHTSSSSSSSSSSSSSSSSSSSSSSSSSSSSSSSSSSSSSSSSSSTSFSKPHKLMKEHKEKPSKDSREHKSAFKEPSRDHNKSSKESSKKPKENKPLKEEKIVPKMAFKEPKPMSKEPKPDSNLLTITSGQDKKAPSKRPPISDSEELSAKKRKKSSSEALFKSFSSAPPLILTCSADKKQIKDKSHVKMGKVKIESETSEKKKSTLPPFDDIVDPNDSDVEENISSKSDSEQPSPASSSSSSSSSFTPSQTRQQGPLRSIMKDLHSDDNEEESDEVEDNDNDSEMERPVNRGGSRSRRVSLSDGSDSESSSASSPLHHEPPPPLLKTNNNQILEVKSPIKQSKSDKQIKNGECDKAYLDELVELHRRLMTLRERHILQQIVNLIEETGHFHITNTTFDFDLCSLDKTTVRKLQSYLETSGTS
Ecoli rRNA inh = reduced GFP signal of wild-type E. coli, primary screen, bacterial rRNA inhibitor project, GFP/RFP fluorescence, OD600, single point. E. coli WT GFP vs humanized-ribosome RFP mutants, 24 h; hits give low values; DMSO median 0, no signal -100. 350,000 compounds, 1.6% hits. AID 720706, 2013. GFP signal change (wild-type ribosome), % (concentration not given with the values);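 active = significant combined selectivity score with lowered wild-type GFP, culture density cut under 30%, mutant RFP and density less affected; inactive = any of these conditions unmet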; note: one replicate is shown; some compounds called inactive have numbers as strong as hits
Bfl-1 A1 inh = caspase 3/7 activation in MEF A1-2A-BIM cells, primary screen, A1 inhibitor project, cell-based, luminescence, HTS; caspase activation, % (concentration not given with the values); AID 2462, 2010; Caspase-Glo 3/7 luminescence, 3 h; percent of clofoctol response, vehicle zero; 330,000 compounds, 0.066% hits;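 active = over half of replicate activation scores above 10%, or exactly half above 10 with the replicate mean above 10; inconclusive = replicate mean below 10 yet half the replicates above 10; inactive = over half of replicates below 10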;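 note: wells of about 30 µL received 50 nL stock; many hits fall short of the cut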
Vif A3G = inhibitors of Vif binding to APOBEC3G peptide, primary screen, biochemical, TR-FRET, GST-Vif 1-94, biotin-A3G peptide, dose response retest (AID 1117319). Virion infectivity factor (Human immunodeficiency virus type 1 group M subtype B (isolate …. TR-FRET GST-Vif / biotin-A3G peptide binding; higher % means a stronger effect; test concentration not given here; strong numbers were not always called active. inhibition, %, or IC50 in µM where a hit was titrated. 260,000 compounds, 0.57% hits;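 active = above the screen mean plus three standard deviations and confirmed in dose response; inconclusive = results disagree or hit not tested in dose response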;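 note: Vif residues 1-94 fused to GST binding biotinylated APOBEC3G peptide 110-148; 0% = full assay without inhibitor and 100% = GST in place of GST-Vif; retest series ran down from 100 µM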
Ecoli rRNA inh OD600 = also measured in Ecoli rRNA inh; calls as there; OD600 change, %; measured here: OD600 growth;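 optical density of the mix in the first replicate; 0 = DMSO median and -100 = no signal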
Ecoli rRNA inh RFP = also measured in Ecoli rRNA inh; calls as there; RFP signal change, %; measured here: RFP humanized mutant strains;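 first replicate; 0 = DMSO median and -100 = no signal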
Starred values were filed as active, the others as inactive; ? = inconclusive; · = not tested or not shown.

SMILES	Calb FLC	T cruzi inh	Beta apoptosis	RanGTP-Impb inh	MLL AF4-AF9 inh	Ecoli rRNA inh	Ecoli rRNA inh OD600	Ecoli rRNA inh RFP	Bfl-1 A1 inh	Vif A3G
Cc1c(NC(=O)Nc2ccc(Cl)cc2Cl)c(=O)n(-c2ccccc2)n1C	-2.4	-4.2	-1.7	4.9	-0.8	10.1	4.7	1.1	1.6	5.3%
COc1ccc2c(c1)c(C(=O)N/N=C/c1cccc(Br)c1)c(C)n2C	2.2	54.5*	2.1	0.3	-3.4	10.3	14.0	0.4	0.4	-7.0%
CCOc1ccc(N(CC(=O)Nc2c(C)n(C)n(-c3ccccc3)c2=O)S(=O)(=O)c2ccccc2)cc1	5.4	-2.2	-4.2	3.2	-1.9	7.5	1.1	0.9	0.2	·
O=C(NC1CCCCCCC1)c1cc(F)c(F)cc1Cl	-9.0	-5.2	-11.1	1.4	-3.1	1.8	-5.8	-4.9	0.1	-6.5%
C#CCOCCOCCOCCNc1nc(N2CCN(C(=O)[C@H](CO)n3cc([C@@H](N)C(C)C)nn3)CC2)nc(N2CCN(C(=O)[C@H](CCC(=O)O)n3cc([C@@H](N)[C@H](C)CC)nn3)CC2)n1	·	·	-6.9	·	0.2	16.5	1.3	0.9	0.2	-3.6%
CC(O)CNc1nc2c(c(=O)n(C)c(=O)n2C)n1Cc1cccc(C(F)(F)F)c1 (stereo unspecified)	2.1	-2.8	-6.2	4.7	·	·	·	·	-0.3	3.6%
COc1ccc(NC(=O)COn2nnc3ccc(Cl)cc32)cc1OC	-17.9	15.2	-1.8	6.8	3.8	-35.3	-34.1	-5.1	0.2	-1.4%
CCc1ccc(NC(=O)CN2C(=O)CC(C)S(=O)(=O)c3ccccc32)cc1 (stereo unspecified)	6.0	2.4	-1.8	-3.5	2.0	5.9	-4.7	-2.7	0.5	0.5%
CC(C)CNC(=O)COC(=O)c1ccc2c(c1)C(=O)N(Cc1ccco1)C2=O	-3.0	-24.2	-4.7	-0.4	0.3	6.4	4.7	-1.6	1.2	·
CCC(C)C(=O)Nc1cc(C(=O)OC)cc(C(=O)OC)c1 (stereo unspecified)	6.1	-4.9	-1.7	0.5	3.1	5.2	5.4	-3.7	-0.4	5.7%
CCn1c(-c2csc3c2CCC(C)C3)n[nH]c1=S (stereo unspecified)	-49.7	-23.1	-1.9	3.5	-5.8	0.4	6.3	-4.4	0.0	-9.0%
CC(=O)c1cccc(N(CC(=O)Nc2cc(C)cc(C)c2)S(C)(=O)=O)c1	-6.0	2.6	1.4	-3.4	0.2	5.8	-9.6	-0.6	-0.1	15.5%
Cc1ccc(NCc2nc3ccccc3n2C)cc1C	-14.4	6.1	1.7	0.4	9.2	-2.6	3.4	-0.3	-2.3	·
N=c1sccn1CC(=O)Nc1ccc(Cl)cc1[N+](=O)[O-]	-7.9	-0.5	-0.7	3.0	-9.9	7.4	8.5	0.4	0.5	·
CSc1ncccc1C(=O)OCC(=O)Nc1ccc(S(=O)(=O)N2CCCC2)cc1	4.3	-15.2	-10.8	1.0	·	·	·	·	0.4	?
CCOc1ccc(S(=O)(=O)NCCc2cn3ccccc3n2)cc1	2.9	-8.3	0.0	-0.8	-0.5	3.6	4.9	-0.9	-0.7	·
COc1ccc(NC(=O)CSc2nccn2C)c([N+](=O)[O-])c1	12.4	2.8	-5.6	0.6	1.1	17.1	-2.0	-1.6	0.8	5.0%
CC(=O)N1CCN(c2ccc(NCc3ccccc3)cc2)CC1	21.1	-4.1	·	?	·	·	·	·	0.6	>50.5µM*
COc1ccc(OC)c(S(=O)(=O)Nc2ccccc2O)c1	1.8	5.4	-1.5	1.8	2.4	0.3	0.8	0.6	0.3	·
Cc1ccccc1CS(=O)(=O)c1cn(CC(=O)N2CCOCC2)c2ccccc12	-3.2	7.0	-8.2	5.0	-16.8	9.8	9.8	0.3	0.0	-4.6%
COc1ccccc1OCC(=O)Nc1ccccc1C(=O)Nc1cccc(C(=O)O)c1	-4.7	-13.8	-2.3	-1.2	-2.8	1.4	0.6	-2.5	0.2	·
CN(C)NC1CC(=O)N(c2ccccc2)C1=O (stereo unspecified)	13.5	-12.7	-4.1	2.4	-2.1	16.1	8.4	-0.4	0.5	3.4%
CCOC(=O)Nc1cc(C(=O)OC)ccc1C	-17.5	-8.4	0.8	-1.5	·	4.3	10.4	-1.5	-1.3	2.7%
CSCC[C@H](NC(=O)C(C)Oc1ccc(Cl)cc1)c1nc2ccccc2[nH]1 (stereo partly specified)	1.6	1.6	-3.9	0.7	·	·	·	·	0.3	31.5%
CCN(CC)S(=O)(=O)c1cc(C(=O)Nc2cc(C)on2)c(Cl)cc1Cl	10.7	9.4	-6.1	-3.2	4.3	-7.6	-12.6	0.0	0.9	0.1%
CN(C(=O)c1ccc(Cl)c(S(=O)(=O)N2CCOCC2)c1)c1ccccc1C(=O)O	-0.2	-11.7	-9.3	9.6	1.6	7.9	12.2	5.7	-0.6	-3.0%
COC(=O)c1cc(NC(=O)Nc2cc(OC)ccc2OC)cc(C(=O)OC)c1	5.9	23.8	6.6	-0.5	·	·	·	·	-0.1	-1.8%
O=C(O)c1ccccc1NC(=O)c1cc2ccccc2oc1=O	-2.5	-4.6	·	-0.4	-4.3	-18.3	-8.9	-4.5	-3.7	·
O=C(NNC(=S)Nc1cccc(C(F)(F)F)c1)c1cccc(Cl)c1	8.7	-49.0	15.6	3.6	4.7	-54.2	-79.2	-27.9	-0.1	·
CCc1ccccc1NC(=O)CNC(=O)c1cn(Cc2ccccc2)nc1-c1cccnc1	·	·	0.3	·	-3.3	-2.6	-2.8	2.7	-0.1	-4.5%
COc1ccc(-c2nc(C)c(C(C)=O)n2O)cc1	-22.8	-14.0	9.5	4.1	·	·	·	·	-0.7	29.7%
CCOC(=O)N1CCN(C(=O)c2ccc3c(=O)n4c(nc3c2)CCCCC4)CC1	15.2	-0.3	-10.8	2.6	·	·	·	·	-0.2	31.9%
CC1CCN(S(=O)(=O)c2ccc3c(c2)oc(=O)n3CC(=O)NCc2ccc3c(c2)OCO3)CC1	-3.6	24.3	11.2	-5.5	-5.6	-20.6	-27.2	6.0	-0.3	8.5%
O=C(Oc1ccc(F)cc1C(=O)/C=C/c1cccs1)c1cccc([N+](=O)[O-])c1	0.8	15.4	2.5	0.0	·	·	·	·	0.7	9.8%
CCNC(=S)/N=C(\N)Nc1nc(C)c2cc(C)ccc2n1	4.0	14.9	1.1	3.8	-0.3	-26.0	-22.9	0.0	0.0	·
COc1ccc(CNC(=O)C2CCC(CNC(=O)[C@@H]3Cc4ccccc4CN3)CC2)cc1 (stereo partly specified)	-28.8	3.0	-6.9	2.3	10.4	0.4	4.4	-2.3	1.4	·
Cc1ccc(S(=O)(=O)N2CCOCC2)cc1C(=O)Nc1ccc(-c2cn3ccsc3n2)cc1	-6.1	3.1	-6.1	-0.4	·	·	·	·	-0.8	13.2%
CCCN(CCC)CC(O)Cn1c2ccccc2c2ccccc21 (stereo unspecified)	-2.7	19.8	7.9	?	0.6	10.6	1.6	-0.1	0.1	0.6%
CCCOc1cccc(C2C(C(=O)c3cc4ccccc4o3)=C(O)C(=O)N2c2cc(C)on2)c1 (stereo unspecified)	-4.2	2.0	-3.8	1.4	-0.7	-1.7	-0.8	-3.5	-0.2	·
COC(=O)c1ccc(C(C(=O)NC2CCCCC2)N(Cc2ccc(F)cc2)C(=O)Cc2cccs2)cc1 (stereo unspecified)	-3.1	13.0	2.2	-3.6	·	·	·	·	1.4	8.9%
CC(C)CNC(=O)c1cc([N+](=O)[O-])ccc1N1CCCCC1	-1.6	7.5	-4.8	0.1	3.1	-12.9	-17.6	-3.9	0.0	·
CC(=O)c1cccc(CN2CCCC(CCC(=O)NCc3ccc(F)c(F)c3)C2)c1 (stereo unspecified)	-11.6	75.7*	-0.1	0.3	-0.4	7.0	-3.2	1.4	-0.5	8.5%
Cc1cc(S(=O)(=O)N2CCN(c3ccccc3C)CC2)ccc1F	-2.7	10.6	3.8	-2.0	·	·	·	·	-0.3	2.7%
O=C(O)c1cc(NS(=O)(=O)c2ccc(NC3CCCCC3)c([N+](=O)[O-])c2)cc(C(=O)O)c1	-2.5	-3.0	2.0	-1.6	0.3	-1.6	1.6	-2.0	-0.4	·
CCC(C)(C)n1nnnc1C(c1cccs1)N1CCN(Cc2ccccc2)CC1 (stereo unspecified)	1.5	5.2	-2.2	-3.1	-27.8	-2.4	-15.8	-5.3	0.1	14.5%
Cc1ccc(S(=O)(=O)NNC(=O)c2ccccc2O)cc1	-19.3	-12.3	·	4.1	·	·	·	·	-0.9	·
Cc1ccc(-n2cc(C(C)(C)C)[nH]c2=S)cc1	-29.6	1.1	·	-3.4	·	·	·	·	0.3	18.5%
O=C(N/N=C/c1ccc(-c2ccccc2[N+](=O)[O-])o1)c1cncc(Br)c1	-13.2	-7.3	-2.8	0.0	·	·	·	·	-0.5	·
CCOC(=O)Cn1c(N2CCOCC2)nc2c1c(=O)[nH]c(=O)n2C	-11.4	-8.0	0.5	-0.5	·	·	·	·	-0.2	3.1%

Screening results: PubChem, several laboratories

The list is partial. The share of hits here may be higher or lower than overall.
